# VDR inhibitor: inhibitors of human vitamin D receptor; P11473; VDR-SRC2-3 peptide fluorescence polarization, 2 h; Potency, µM, without a hit: max response, negative = inhibition, actives largely listed as inhibitors; 400,000 compounds, 0.93% hits; AID 504847; active = well fitted inhibition curve with a large enough effect; inconclusive = small, poorly fitted or top-dose-only effect, or another doubt; inactive = no such curve, though single readings can be large or run the other way; note: series mostly up to about 120 µM
# Target sequence (P11473 whole entry, looked up): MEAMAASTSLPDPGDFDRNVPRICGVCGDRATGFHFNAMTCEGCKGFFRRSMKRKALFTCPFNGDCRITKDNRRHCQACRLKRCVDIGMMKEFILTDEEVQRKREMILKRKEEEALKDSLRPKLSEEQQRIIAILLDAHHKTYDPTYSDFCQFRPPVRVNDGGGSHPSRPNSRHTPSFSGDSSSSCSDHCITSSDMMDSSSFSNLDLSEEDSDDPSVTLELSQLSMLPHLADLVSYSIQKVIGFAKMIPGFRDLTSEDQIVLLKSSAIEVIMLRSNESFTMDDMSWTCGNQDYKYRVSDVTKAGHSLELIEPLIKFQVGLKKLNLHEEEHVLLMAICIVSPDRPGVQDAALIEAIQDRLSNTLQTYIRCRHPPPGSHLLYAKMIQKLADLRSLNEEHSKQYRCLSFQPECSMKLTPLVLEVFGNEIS
#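 VDR–SRC2-3 interaction, FP format. Cmpds 23 nl via pintool, brief spin, 2 h ambient incubation.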
# An asterisk follows results filed as active; ? = inconclusive; & = joins results of further samples; ! = a repeat was not active. % is set by controls: 0 for no effect and ±100 for the full control effect; potency is the fitted concentration of half-maximal effect. An excerpt; the hit share may differ from the screen's.
SMILES,VDR inhibitor
CCOC(=O)C/C(C)=N/NC(=O)C1CC1(c1ccccc1)c1ccccc1 (configuration not stated),2%
O=C(COC(=O)c1ccc[nH]c1=O)NCCc1ccc(Cl)cc1Cl,6%
COc1ccc(NC(=O)C(=O)NCCN2CCN(C(=O)c3ccc(C)cc3)CC2)cc1,-2%
CC(=O)Oc1ccc2nonc2c1OC(C)=O,1.4µM*
Cn1c(=O)c2sccc2n2c(CCCC(=O)NCc3ccccc3)nnc12,2%
O=C(CCNC(=O)c1ccccc1)NCCCc1ccccc1,6%
COC(=O)C1=C(N)Oc2cc(C)n(Cc3cccnc3)c(=O)c2C1c1ccc(OC)c(OC)c1OC (configuration not stated),13%
COCC(C)n1c(SCc2ccc(OC)c(F)c2)nc2ccccc2c1=O (configuration not stated),-3%
Cc1onc(-c2c(Cl)cccc2Cl)c1C(O)c1ccc(F)cc1 (configuration not stated),-22%
O=c1cc(-c2ccccc2)nc(SCc2nc(-c3ccc(Cl)cc3)no2)[nH]1,10%
CCCC(=O)Nc1c(O)c2ccccc2[nH]c1=O,10%
CCS(=O)(=O)NCCc1csc2nc(-c3ccc(OC)cc3)nn12,12%
CCc1ccc2oc(C(=O)N(Cc3ccc(N(C)C)cc3)Cc3ccco3)c(C)c2c1,4%
O=C(CN1CCN(c2ccccc2F)CC1)c1ccc(O)cc1O,8%
CC(=O)c1c(C)[nH]c(C(=O)OCC(=O)N2CCN(S(=O)(=O)c3ccc(C)cc3)CC2)c1C,-14%

# Structural class, those above containing an aryl methoxy group (4)
SMILES,VDR inhibitor
COc1ccc(NC(=O)C(=O)NCCN2CCN(C(=O)c3ccc(C)cc3)CC2)cc1,-2%
COC(=O)C1=C(N)Oc2cc(C)n(Cc3cccnc3)c(=O)c2C1c1ccc(OC)c(OC)c1OC (configuration not stated),13%
COCC(C)n1c(SCc2ccc(OC)c(F)c2)nc2ccccc2c1=O (configuration not stated),-3%
CCS(=O)(=O)NCCc1csc2nc(-c3ccc(OC)cc3)nn12,12%

# Other results follow:
SMILES,VDR inhibitor
CCCCN(C)C(=O)c1nc2ccccn2c1CNCCCn1ncc2ccccc21,-6%
O=C(O)c1cccc2c1C(=O)N(Cc1ccccc1)C2,-7%
COc1cc(/C=N/NC(=O)c2nnn(-c3nonc3N)c2C(C)C)ccc1OCc1ccccc1,2%
O=c1[nH]c(=O)n(-c2ccc(F)cc2)c2c1C(C(F)(F)F)(C(F)(F)F)N=C(c1ccc(F)cc1)N2,4%
COC(=O)c1cn(CCC#N)nc1-c1ccc2ccccc2c1,-3%
COCCn1c(C)cc(O)c(C(c2ccccc2)N2CCN(c3ccccc3F)CC2)c1=O (configuration not stated),10%
CCN(c1ccc(NC(=O)COC(=O)c2ccc(C)c(S(=O)(=O)N3CCOCC3)c2)cc1)C(C)C,-5%
CC(=O)c1cccc(NC(=O)N2CCCC2C(=O)NCc2ccccc2)c1 (configuration not stated),11%
CCn1cc(C(=O)Nc2ccc(OC)c(OC)c2)c2cc(OC)c(OC)cc2c1=O,3%
O=C(CN1CCCCC1)Nc1cccc(Cl)c1,-24%
Cc1nn(CC(O)COc2ccc3c(c2)CCC3)c(C)c1C (configuration not stated),-12%
O=C(NC1C(=O)NNC1c1ccc(Cl)cc1)c1ccc(F)cc1 (configuration not stated),-27%
OCC1OC(n2cnc3c(/C=C(\O)c4ccccc4)ncnc32)C(O)C1O (configuration not stated),2%
COc1cccc(-c2cc(=O)c3cc(NC(=O)c4ccc(N(C)C)cc4)ccc3[nH]2)c1,-3%&6%
CN(C)c1ccc(C=c2c3ccccc3n3c2cc(-c2ccccc2)[n+]3C)cc1,-15%

# In a second layout: entries from further up
VDR inhibitor | structure
4% | O=c1[nH]c(=O)n(-c2ccc(F)cc2)c2c1C(C(F)(F)F)(C(F)(F)F)N=C(c1ccc(F)cc1)N2
10% | COCCn1c(C)cc(O)c(C(c2ccccc2)N2CCN(c3ccccc3F)CC2)c1=O (configuration not stated)

# Additional compounds follow.
SMILES,VDR inhibitor
COc1ccc(-n2nc(C(=O)Nc3cc(OC)c(OC)c(OC)c3)c(=O)n(C)c2=O)cc1,1%
Cc1ccc(NC(=O)CN(C)CC(=O)Nc2ccccc2Oc2ccccc2)cc1,3%
NC1C=CC=C(C(=O)O)C1 (configuration not stated),-12%&-5%
CC(C)CC(=O)N1CCC(O)(CS(=O)(=O)Cc2ccc(Cl)cc2)CC1,18%
O=C(NCc1cccs1)c1cc(-c2ccccc2)nn1CC1CC(c2cccnc2)=NO1 (configuration not stated),-3%
Cc1noc(C)c1C(=O)Nc1cccc2ncccc12,4%
O=C(Cc1ccc(Cl)cc1)Nc1ccc2nn(-c3ccc(Cl)cc3)nc2c1,-25%
NC(=O)C1CCCN(S(=O)(=O)c2ccccc2)C1 (configuration not stated),12%
COc1ccc(OC)c(C(=O)COC(=O)CNC(=O)c2ccccc2)c1,-5%
CCc1c(C)[nH]n(-c2nc(-c3ccccc3)cs2)c1=O,10%
CCOc1cc2[nH]c(=O)n(Cc3ccc(C(=O)NCCN(CC)CC)cc3)c(=O)c2cc1OCC,-2%
COc1ccc(NC(=O)c2ccco2)cc1NC(=O)c1ccc(Br)o1,9%
CCN(Cc1ccccc1)S(=O)(=O)c1cc(C(=O)NC2CCCCCC2)ccc1OC,2%
S=C(Nc1ccccc1)Nc1ccc(Br)cn1,-15%
CCCCNC(=O)CCNS(=O)(=O)c1ccc(C)cc1,8%
O=C1c2ccccc2C(O)(Cc2ccccc2)N1CCCN1CCOCC1 (configuration not stated),2%
Cc1ccc(S(=O)(=O)NC(=O)c2ccc(F)cc2)c(C)c1,-6%
CCC(C)(C)n1nnnc1C(c1cc2cc(OC)c(OC)cc2[nH]c1=O)N1CCc2ccccc21 (configuration not stated),-2%
CCOC(=O)C/C(C)=N\Nc1nc(-c2ccccc2)cs1,-8%
Cc1cccc(Nc2c3c(nc4ccccc24)CCC3)c1,-1%
CCOC(=O)Cn1c(=O)c2c(nc3n2CCCN3CCc2ccccc2)n(C)c1=O,7%
OCCC1CN(Cc2ccc(-n3cccn3)cc2)CCN1Cc1ccccc1 (configuration not stated),8%
CN(C)c1ccc(C(=O)Nc2ccc(O)c3c(=O)cc(-c4ccccc4Cl)oc23)cc1,-1%&1%
CC(=O)NC(=S)NNC(=O)c1ccc(Br)cc1,0%
O=C(O)CC(NS(=O)(=O)c1c(F)cc(F)cc1Br)c1ccccc1Cl (configuration not stated),3%
CC(=O)Nc1ccc(NC(=O)c2ccccc2N(C)S(=O)(=O)c2ccccc2)cc1,?
CCOC(=O)c1cc2c(=O)n3ccccc3nc2n(Cc2ccco2)c1=NC(=O)c1ccc(C)c(C)c1,-23%
O=C(COC(=O)C1(c2ccc(F)cc2)CCCC1)N1CCNC1=O,7%
COc1ccc(OC)c(NC(=O)Cn2ccn(-c3ccc(OC)c(OC)c3)c(=O)c2=O)c1,8%
CC1CCN(Cc2c(C(=O)N/N=C/c3ccc(C(C)(C)C)cc3)nnn2-c2nonc2N)CC1,-10%
CCn1cnc2c1c(=O)n(CC(=O)OC(C)C(N)=O)c(=O)n2Cc1ccccc1 (configuration not stated),3%
Cc1ccc(/C=N/n2c(-c3ccccc3)n[nH]c2=S)cc1,-17%
CCN(C(=S)NC(=O)Cc1ccc(OC)cc1)c1ccccc1,-9%
O=C(Cn1nnc(-c2ccccc2Cl)n1)N/N=C/c1ccc(-c2cccc(Cl)c2)o1,1%
CCn1nc(C)c(C(=O)Nc2cc(Oc3ccc(Cl)cc3)cc([N+](=O)[O-])c2)c1C,9%
CN(Cc1ccccc1)C(=O)c1ccc2c(c1)N(Cc1ccccc1Cl)C(=O)c1ccccc1S2,9%
Oc1c(I)cc(I)c2cccnc12,35µM*!
Cc1cccc(CC(C)NC(=O)c2cc(COc3ccc(C)c(C)c3)on2)n1 (configuration not stated),-6%
CCSc1ccc([C@@H]2[C@@H]3C(=O)N(C)C(=O)[C@@H]3[C@]3(C(=O)OC)CCCCN23)cc1OC,8%
CCCCCCCNC(=O)C1(CC2CC(c3cccc(Br)c3)=NO2)CCN(C(=O)c2cc(OCC)c(OCC)c(OCC)c2)CC1 (configuration not stated),-15%
CCOC(=O)N1CCN(c2cc(=O)n(-c3ccccc3C)c(=O)[nH]2)CC1,2%
O=C(CCl)N(c1ccccc1)c1ccccc1,?
O=C(NN1C(=O)C2C(c3ccccc3)C=CC(c3ccccc3)C2C1=O)c1cccc(Br)c1 (configuration not stated),-12%
COc1ccc(NC(=O)COC(=O)C(CC(C)C)N2C(=O)C3CC=CCC3C2=O)cc1Cl (configuration not stated),-9%
COc1cc2c(CCNC(C)=O)c[nH]c2cc1Cl,0%&2%

# Overlap with the part before: two entries, then new ones.
SMILES,VDR inhibitor
COc1ccc(NC(=O)COC(=O)C(CC(C)C)N2C(=O)C3CC=CCC3C2=O)cc1Cl (configuration not stated),-9%
COc1cc2c(CCNC(C)=O)c[nH]c2cc1Cl,0%&2%
O=c1[nH]cnc2sc3c(c12)CCC3,-2%
Cc1ccccc1-c1nc(CN2CCC(C(=O)NCCc3ccccc3)CC2)c(C)o1,1%
CCOC(=O)C1=C(C)Nc2nnnn2C1c1ccccc1Cl (configuration not stated),6%
Cn1ncc2c(Nc3cccc([N+](=O)[O-])c3)ncnc21,-5%
CC1CC(C)CN(CCCn2c(=S)[nH]c3ccccc3c2=O)C1 (configuration not stated),3%
COc1cc(-c2nnc(NC(=O)CS(=O)(=O)c3ccc(F)cc3)o2)cc(OC)c1OC,4%
Cc1ccc(C)c(-n2c(N)c(C#N)c3nc4ccccc4nc32)c1,?
CC1Cc2ccccc2N1Cc1nc2cc(Cl)ccc2c(=O)[nH]1 (configuration not stated),-10%
CC(=O)Nc1cc([N+](=O)[O-])ccc1N1CCOCC1,-1%
Cc1cc(C)c(S(=O)(=O)O)c(C)n1,8%
COc1ccc(CCNC(=O)COC(=O)CCC(=O)c2ccc(F)cc2)cc1OC,3%
O=C(CCc1nnc(CCCCc2ccccc2)o1)NCc1cc(F)ccc1F,6%
O=c1[nH][nH]c(=O)c2c(NS(=O)(=O)c3ccccc3)cccc12,-23%
CCOC(=O)c1c(NC(=O)CCN2C(=O)c3ccccc3C2=O)sc(C(=O)OC(C)C)c1C,11%
Cc1cc(C)c2c(n1)SCC(=O)N2CC(=O)Nc1cc(F)ccc1F,-8%
CN(C)c1cc(O)c(C(=S)Nc2ccccc2)c(N(C)C)c1,-3%
O=C(Nc1nc(-c2ccncc2)cs1)c1ccc(S(=O)(=O)N2CCOCC2)cc1,3%
CC(CN(C)Cc1ccccc1)OC(=O)c1ccc2c(c1)OCCO2 (configuration not stated),18%
COCCn1c(=NC(=O)CSC(C)=O)sc2cc(OC)ccc21,-22%
COc1ccc(N2CCN(C(=O)c3ccc(S(=O)(=O)NCc4ccco4)cc3)CC2)cc1,10%
CN(C1CCS(=O)(=O)C1)S(=O)(=O)c1ccc(N2CCCC2=O)cc1 (configuration not stated),3%
O=[N+]([O-])c1cccc(N/N=C/c2cc([N+](=O)[O-])ccc2O)c1,15%
CC(OC(=O)c1ccc(NC(=O)CC#N)cc1)C(=O)Nc1ccc2c(c1)OCCO2 (configuration not stated),-4%
Cc1ccc2nc(Cl)c(/C=N/NC(=O)CN3CCOCC3)cc2c1,2%
COc1ccc(Sc2nc3ccccc3n3c(C(F)(F)F)nnc23)cc1,3%
CCc1nnc(NC(=O)c2ccncc2)s1,11%
COc1ccc(OC)c(NC(=O)CCn2c(=S)[nH]c3ccccc3c2=O)c1,6%
CN(C)c1ccc(Nc2ncnc3ccc(Br)cc23)cc1,?
Cc1ccccc1OCc1ccc(C(=O)N2CCOCC2)o1,3%
CCOC(=O)c1cc2cc(C)ccc2[nH]1,-19%
O=S(=O)(c1ccc(F)cc1)N1CCC2(CC1)OCCO2,-2%
COc1ccc(C(=O)N2CCCC(c3nc(-c4cccs4)no3)C2)cc1 (configuration not stated),-10%
CC(C)[C@H](NC(=O)c1ccco1)C(=O)OCC(=O)N(C)c1ccccc1,-9%
C/C(=N\NC(=O)c1cccc(C)c1)c1ccc(N2CCOCC2)cc1,-3%
CCOC(=O)c1ccc(NC(=O)c2c(NCc3sccc3C)sc3c2CCCCC3)cc1,?
COc1ccc(C2C=C(c3cccc(OC)c3)Nc3c(C(=O)Nc4ccccc4)cnn32)cc1 (configuration not stated),8%
COc1ccccc1NC=C1C(=O)OC(C)(C)OC1=O,?
O=C(Nc1ccc(F)cc1)C(Cc1ccccc1)n1cccc1 (configuration not stated),6%
CCN1C(=O)C(Cc2nc3ccccc3c(=O)n2-c2ccc(OC)cc2)c2cc(C)ccc21 (configuration not stated),5%
CSc1ccc(CN2CCC(Oc3ccc(C(=O)N4CCCC4)cc3)CC2)cc1,-14%
c1ccc(CSc2nc3ccccc3[nH]2)cc1,19%
COc1ccccc1CNc1ccc(Br)cn1,-3%
COc1cccc(Cn2c(=O)n(CC3CCC(C(=O)N4CCCCC4)CC3)c(=O)c3sccc32)c1 (configuration not stated),7%
CCOC(=O)C(C)Sc1ncc(OC)c(Sc2ccc(Cl)cc2)n1 (configuration not stated),-2%
COc1ccc(C(=O)NC(=S)NCC2CCCO2)cc1 (configuration not stated),0%

# Marked active in VDR inhibitor (from the list above):
SMILES,VDR inhibitor
CC(=O)Oc1ccc2nonc2c1OC(C)=O,1.4µM*
Oc1c(I)cc(I)c2cccnc12,35µM*!

# (more compounds)
SMILES,VDR inhibitor
O=C(Nc1cccc(-c2csc(Nc3cccc(C(F)(F)F)c3)n2)c1)c1ccccc1,-5%
O=C(C1CCN(S(=O)(=O)c2cccs2)CC1)N1CCN(c2ccccc2)CC1,4%
Cc1cc(C)n(Cc2ccc(C(=O)Nc3cccc(Br)c3)o2)n1,-13%
COC(=O)c1c(NC(=O)c2cccs2)sc2c1CCCC2,-10%
CC(=O)OCC(=O)[C@@]1(O)CCC2C3C[C@H](C)C4=CC(=O)C=CC4(C)C3C(O)CC21C (some centres not stated),-17%

# Screening results (PubChem BioAssay)
